# GIV-Gai inh – blocks GIV peptide binding to rat Galpha-i3; actives 0.42% (n = 210,000); Galpha-i3/FITC-GIV peptide fluorescence polarization, 90 min; hits give low values; scaled: aluminum fluoride 0%, vehicle 100%; percent of control (FP), % (concentration not given with the values); P08753;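 active = replicate mean at 85% of control or lower, very high polarization wells dropped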;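 also: wells of about 15 µL received 100 nL stock; the first replicate is given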
# Target sequence (P08753 whole entry, looked up): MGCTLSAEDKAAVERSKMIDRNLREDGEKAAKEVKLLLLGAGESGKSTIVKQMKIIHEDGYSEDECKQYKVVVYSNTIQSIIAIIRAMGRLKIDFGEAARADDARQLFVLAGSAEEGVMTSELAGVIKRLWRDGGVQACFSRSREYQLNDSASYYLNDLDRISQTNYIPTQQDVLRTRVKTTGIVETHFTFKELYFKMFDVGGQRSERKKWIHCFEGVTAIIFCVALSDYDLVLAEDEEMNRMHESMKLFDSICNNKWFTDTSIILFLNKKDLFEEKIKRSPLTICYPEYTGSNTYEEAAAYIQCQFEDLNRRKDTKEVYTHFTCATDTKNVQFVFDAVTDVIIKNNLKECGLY
# HCMV NEC inh – disrupts HCMV UL50-UL53 complex binding. AID 1918969. HTRF UL50-UL53 interaction, normalized percent inhibition. inhibition, % (concentration not given with the values). actives 0.15% (n = 190,000);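 active = both replicates at 50% or more, plus weaker picks with an unusually low signal ratio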;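 also: stock transfer was 100 nL into about 20 µL; 0% = negative control wells and 100% = wells with untagged competitor protein; inactives centre near -12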
# Sa growth 42C – inhibitors of Staphylococcus aureus growth at 42 °C. relative growth, % (no concentration beside the values). S. aureus RN4220 growth, OD600, 20 h; hits give low values. actives 0.53% (n = 170,000);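 active = growth at 42 °C up to 50% and 20 or more points under that at 30 °C, or under 10% at both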;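 also: 300 nL library stock went into each well; scaled to the means of positive and negative controls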
# Sa growth 42C second temp – second read-out of Sa growth 42C, no call of its own (marks repeat the call); relative growth, %; measured here: growth at 30 °C;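 optical density after 20 h as mean of two plates; 100% = untreated growth and lower means inhibition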
# Starred values were filed as active, the others as inactive; . = not tested or not shown; & = joins results of further samples.
# The line under a structure holds: GIV-Gai inh	HCMV NEC inh	Sa growth 42C	Sa growth 42C second temp
> CCS(=O)(=O)c1ccc2oc(=S)[nH]c2c1
  .	-31	109	91
> COc1ccc(NCc2ccccc2O)cc1
  97	.	72	68
> NC(=O)C1CCN(C(=O)c2ccc(CN3C(=O)CCn4nc(-c5cccc(Cl)c5)cc43)cc2)CC1
  104	-1	.	.
> Nc1nc(Nc2ccc([N+](=O)[O-])cc2)nc(-c2ccc([N+](=O)[O-])o2)n1
  109	-2	.	.
> COc1ccccc1NC(=O)c1sc2cccc(Cl)c2c1Cl
  107	-12	100	88
> N#Cc1sc2nc3ccccc3n2c1/N=C/N1CCOCC1
  133	-25	106	92
> Oc1[nH]c2ccccc2c1C=Nc1ccc(Br)cc1
  102	-12	100	90
> Cc1ccc(N(C)C(=O)CCS(=O)(=O)c2ccc3c(c2)oc(=O)n3C)cc1
  106	-9	74	1
> CC(=O)Nc1scc(C)c1-c1nc2ccccc2s1
  100	-16	102	82
> COc1cccc(OC)c1COC(=O)Nc1c(-c2ccccc2Cl)noc1C
  107	-32	93	86
> Cc1nnc2sc(-c3cccc(Cl)c3)nn12
  104	-9	.	.
> O=C(NCCc1ccccc1)c1ccc(N2C(=O)CCS2(=O)=O)cc1
  98	-13	.	.
> COC(=O)c1ccc(Br)cc1
  99	-12	95	86
> N#Cc1ccc(NC(=O)COC(=O)C23CC4CC(CC(C4)C2)C3)cc1
  .	-9	90	90
> CCc1ccccc1NC(=O)Cn1c(=O)n(CC2CCCO2)c(=O)c2ccccc21 (configuration not stated)
  112	1	97	97
> O=S(=O)(c1ccc(Cl)cc1)N1CCN=C1COc1cccnc1
  102	.	117	94
> O=C(/C=C/c1cccs1)Nc1nccs1
  .	-35	104	82
> CCCC12CN3CC(C)(CN(C1)C3c1ccc(OCc3ccccc3)cc1)C2=O (configuration not stated)
  102	-15	85	91
> COc1ccc(-c2nc(SC(C)C(=O)Nc3ccnn3C(C)C)n[nH]2)cc1 (configuration not stated)
  .	-13	79	83
> CC(C)(C)OC(=O)N1CCCC1C(=O)O (configuration not stated)
  95	-19	89	83

# Arranged by value in Sa growth 42C (rising): three from the list above
molecule	Sa growth 42C
CCCC12CN3CC(C)(CN(C1)C3c1ccc(OCc3ccccc3)cc1)C2=O (configuration not stated)	85
N#Cc1sc2nc3ccccc3n2c1/N=C/N1CCOCC1	106
O=S(=O)(c1ccc(Cl)cc1)N1CCN=C1COc1cccnc1	117

# The main list resumes, repeating the 7 entries before the break.
# The line under a structure holds: GIV-Gai inh	HCMV NEC inh	Sa growth 42C	Sa growth 42C second temp
> N#Cc1ccc(NC(=O)COC(=O)C23CC4CC(CC(C4)C2)C3)cc1
  .	-9	90	90
> CCc1ccccc1NC(=O)Cn1c(=O)n(CC2CCCO2)c(=O)c2ccccc21 (configuration not stated)
  112	1	97	97
> O=S(=O)(c1ccc(Cl)cc1)N1CCN=C1COc1cccnc1
  102	.	117	94
> O=C(/C=C/c1cccs1)Nc1nccs1
  .	-35	104	82
> CCCC12CN3CC(C)(CN(C1)C3c1ccc(OCc3ccccc3)cc1)C2=O (configuration not stated)
  102	-15	85	91
> COc1ccc(-c2nc(SC(C)C(=O)Nc3ccnn3C(C)C)n[nH]2)cc1 (configuration not stated)
  .	-13	79	83
> CC(C)(C)OC(=O)N1CCCC1C(=O)O (configuration not stated)
  95	-19	89	83
> O=C1Nc2ccccc2C1c1c(-c2ccc3ccccc3c2)[nH]c2[nH]c(=O)[nH]c(=O)c12 (configuration not stated)
  108	-40	.	.
> COc1ccccc1OCc1nc(C#N)c(NCc2ccc(C)cc2)o1
  98	4	99	95
> CCOC(=O)C1=C(C(=O)c2ccccc2)C2(C(=O)Nc3ccccc32)C(C#N)=C(N)O1 (configuration not stated)
  .	-4	42	34
> CCc1ccc(-n2c(=O)c3cccnc3n2CC(=O)Nc2cccc(Br)c2)cc1
  108	-6	.	.
> C=Cc1ccc(Cn2c(=O)n(Cc3ccc(C(=O)NC(C)C)cc3)c(=O)c3cc(OC)c(OC)cc32)cc1
  103	-25	.	.
> Cc1oc2c(F)c(F)c(F)c(F)c2c1C(=O)O
  .	14	130	109
> COc1ccc(Nc2ncc(C(=O)O)c3ccccc23)cc1
  99	-53	96	82
> O=C(c1ccc(N2CCCc3ccccc32)s1)N1CCCC1
  104	-41	46	24
> Cc1cccc(CNC(=O)c2ccc(NC(=O)N3CCSc4ccccc43)cc2)c1
  107	-30	103	81
> CC(C)CN(CC(C)C)S(=O)(=O)c1cc(Cl)ccc1Cl
  102	-19	126	91
> CC1=C(C(=O)OCc2ccc3c(c2)OCO3)C(c2cccc(Oc3ccccc3)c2)NC(=O)N1 (configuration not stated)
  101	-23	.	.
> CCCN1C(=O)SC(CC(=O)Nc2cccc3ccccc23)C1=O (configuration not stated)
  107	.	107	71
> O=C(NCCc1ccc(Cl)cc1)C1CCN(S(=O)(=O)c2cccc3cccnc23)CC1
  104	-24	.	.
> Cc1cccc(-n2c(=O)c3c(c4cc(C)ccc4n3C)n(CC(=O)NCC3CCCO3)c2=O)c1 (configuration not stated)
  108	.	119	96
> COc1ccc(/C=C2/SC(=S)N(CCC(=O)N3CCN(C4=NC(=O)/C(=C\c5ccc(C)cc5)S4)CC3)C2=O)cc1
  101	-20	.	.
> COC(=O)c1cc(CN2CCNC(=O)C2)oc1C
  .	-4	107	87
> CCCCCCCCCCC/C=C\C(C)(C)/C=C\CCCC(=O)O
  104	-3&-64	.	.
> Brc1ccc2ncnc(N3CCOCC3)c2c1
  106	1	101	90
> COC(=O)C(Cc1c[nH]c2ccccc12)N=Cc1cc(Cl)cc(Cl)c1O (configuration not stated)
  .	-8	67	2
> O=C(NN1C(=O)C2C3c4ccccc4C(c4ccccc43)C2C1=O)C1CC1 (configuration not stated)
  110	14	90	123

# Compounds above with a furan ring, fused or not, in the order listed:
# The line under a structure holds: GIV-Gai inh	HCMV NEC inh	Sa growth 42C	Sa growth 42C second temp
> Nc1nc(Nc2ccc([N+](=O)[O-])cc2)nc(-c2ccc([N+](=O)[O-])o2)n1
  109	-2	.	.
> Cc1oc2c(F)c(F)c(F)c(F)c2c1C(=O)O
  .	14	130	109
> COC(=O)c1cc(CN2CCNC(=O)C2)oc1C
  .	-4	107	87

# The results go on:
# The line under a structure holds: GIV-Gai inh	HCMV NEC inh	Sa growth 42C	Sa growth 42C second temp
> O=C(Oc1ccccc1)n1c(=O)oc2ccc(Cl)cc21
  .	-6	102	80
> CN1C(=O)C2(c3ccccc31)C(C(=O)N1CCN(c3cccc(C(F)(F)F)c3)CC1)CC1CCCN12 (configuration not stated)
  106	8	92	100
> Cc1ccc(C)c(N2CCN(S(=O)(=O)c3cc(-c4cc(C)no4)ccc3C)CC2)c1
  104	.	92	97
> CCc1ccc(NC(=O)CSc2nc(-c3ccc(C(C)C)cc3)no2)cc1
  106	-6	.	.
> NC(=O)COc1ccc(C2=Nc3ccccc3NC(c3ccccc3)C2)cc1 (configuration not stated)
  106	-15	70	46
> O=c1nc(-c2ccccc2)cc(-c2ccc(Br)cc2)[nH]1
  99	-35	88	97
> CN(C)c1ccc(C(=O)OCCOc2ccccc2F)cc1
  .	-4	93	95
> COc1ccccc1CNC(=O)C(C)n1ccc2cc(S(=O)(=O)N3CCCC3)ccc21 (configuration not stated)
  100	.	79	89
> Nc1cc(=O)[nH]c(SC/C=C/c2ccccc2)n1
  103	-21	121	88
> Cc1cccc2c(=O)cc(C(=O)Nc3nnc(C(C)C)s3)oc12
  94	-53	.	.
> CCOC(=O)N1CCC(NC(=O)c2c(C)nn(-c3ccccc3)c2-n2cccc2)CC1
  99	.	118	96
> O=C(CN1C(=O)COc2ccc(S(=O)(=O)N3CCCCCC3)cc21)N1CCN(c2ccccc2F)CC1
  98	-23	115	89
> Nc1cc(=O)[nH]c(SCC(=O)N(c2ccccc2)c2ccccc2)n1
  101	-10	93	88
> Cc1cc(C)n2nc(CN(C(=O)CC(C)C)c3ccccc3)nc2n1
  92	4	.	.
> COc1cc(NC(=O)CCc2nc(-c3cccs3)no2)cc(OC)c1OC
  105	-20	96	82
> CCc1nnc(NC(=O)c2c(O)c3ccccc3[nH]c2=O)s1
  105	-4	103	89
> COC(=O)Cn1c(=NC(=O)CSCC(=O)NC2CCCCC2)sc2cc(OC)ccc21
  104	-15	103	81
> O=C(O)C1CCCN(C(=O)c2ccc(Cl)cc2)C1 (configuration not stated)
  .	-13	106	90
> CCN(C(=O)C1CCCN1S(=O)(=O)c1cccc2nsnc12)c1ccccc1 (configuration not stated)
  100	-78	103	80
> CCC(=O)N1CCc2cc(S(=O)(=O)NC(C(=O)N3CCC(Cc4ccccc4)CC3)C(C)C)ccc21 (configuration not stated)
  99	-32	.	.

# Already shown: two of the compounds above.
# The line under a structure holds: GIV-Gai inh	HCMV NEC inh	Sa growth 42C	Sa growth 42C second temp
> CC(C)CN(CC(C)C)S(=O)(=O)c1cc(Cl)ccc1Cl
  102	-19	126	91
> CC1=C(C(=O)OCc2ccc3c(c2)OCO3)C(c2cccc(Oc3ccccc3)c2)NC(=O)N1 (configuration not stated)
  101	-23	.	.

# Additional entries.
# The line under a structure holds: GIV-Gai inh	HCMV NEC inh	Sa growth 42C	Sa growth 42C second temp
> Cc1cccc(N(C(=O)c2ccccc2)C2=NCC(C)S2)c1 (configuration not stated)
  .	1	99	90
> O=C(NC1CCCCCC1)c1cn(-c2ccc(F)cc2)nn1
  104	-23	86	86
> CCc1ccc(NC(=O)CCNC(=O)Cn2ccc3ccccc3c2=O)cc1
  98	.	102	94
> CC(=O)Nc1nc(CSc2nc3ccccc3n2C)cs1
  .	-29	97	87
> CN(C)CCCNCc1cccs1
  105	-24	91	82
> CC(CC1CC(C)(C)OC1=O)c1nc(=S)[nH][nH]1 (configuration not stated)
  105	.	110	86
> Cc1ccc(-c2ccc(C#N)c(=O)n2CC(=O)N2CCC(C(N)=O)CC2)cc1
  107	-14	108	93
> Cc1sc2ncc(C(=O)NC3CCCCC3)c(=O)n2c1C
  105	-24	.	.
> CC1CCCCC1NC(=O)c1ccc2c(c1)NC(=O)C1CCCN21 (configuration not stated)
  115	.	105	78
> Cc1cccc(N2C(=O)CC(c3ccc(F)cc3)C3=C2COC3=O)c1 (configuration not stated)
  105	.	119	86
> CCCN1C(=O)c2ccccc2NC1c1cc(OC)c(OC)c(OC)c1 (configuration not stated)
  103	-11	113	103
> c1ccc(-c2cc(N3CCOCC3)nc(-c3ccccc3)n2)cc1
  .	-2	96	87
> COc1ccc(-n2nc(C(=O)N3CCCC(C)C3)c3c4ccccc4n(C)c3c2=O)cc1Cl (configuration not stated)
  103	-32	101	92
> Nc1cnc(-c2ccccc2)nc1
  .	4	119	85
> O=C(CSc1nnc(C2COc3ccccc3O2)o1)N1CCCCC1 (configuration not stated)
  100	.	88	83
> CC(=O)Nc1c(C)nn(-c2ccccc2)c1N1CCC(C(=O)NCc2cccc(Cl)c2)CC1
  103&107	.	89	87
> Cc1cnc(C(=O)OCC(=O)NCC23CC4CC(CC(C4)C2)C3)cn1
  .	-26	99	88
> CCOC(=O)c1[nH]c2ccccc2c1NC(=O)c1cc(OCC)c(OCC)c(OCC)c1
  100	4	107	105
> CCCOC(=O)c1ccc(NC(=O)Cn2cnc3c2c(=O)n(C)c(=O)n3C)cc1
  101	-26	.	.
> Cc1ccc(-c2noc(C(C)NC(=O)c3ccco3)n2)cc1 (configuration not stated)
  108	-30	74	66
> COc1ccccc1C(=O)NCc1ccccc1C
  99	-20	104	85
> COc1ccc(C2(N3CCN(c4cc(C)ccc4C)CC3)C(=O)c3ccccc3C2=O)cc1
  100	-6	107	92
> O=C(CSC1=Nc2ccccc2N=C(c2ccc(F)cc2)C1)NCc1ccccc1
  109	.	88	98
> COc1cc2c(cc1OC)C(C)N(C(=O)c1cccs1)CC2 (configuration not stated)
  101	-8	112	83
> O=C(Cn1c(=O)n(Cc2ccccc2)c(=O)c2sc3ccccc3c21)Nc1ccc(F)cc1
  104	9	101	95
> CCOC(=O)C1=C(C)N=c2s/c(=C/c3cc(Br)c(N4CCOCC4)o3)c(=O)n2C1c1ccccc1OC (configuration not stated)
  101	-9	.	.
> CCOC(=O)c1nc(N2CCN(c3ccccn3)CC2)c2c3c(sc2n1)CCCC3
  101	-25	.	.
> Cc1cccc(C(=O)OCc2cc(=O)n3nc(-c4cccs4)sc3n2)c1
  106	.	89	73
> CCOC(=O)c1sc2ccccc2c1S(=O)(=O)Nc1cccc(C(F)(F)F)c1
  101	.	89	86
> CCSc1nnc(CNC(=O)c2cccc(OC)c2)n1-c1ccccc1OC
  97	-3	89	90
> CCCOc1ccc(NC(=O)CC2C(=O)N(c3ccc(F)cc3)C(=O)N2CC(C)C)cc1 (configuration not stated)
  99	.	105	83
> Cn1nccc1NC(=O)CCCC(=O)O
  97	-14	101	82
> COc1ccc(C2CC(c3cc(OC)cc(OC)c3)=NC(N)=N2)cc1 (configuration not stated)
  .	-6	89	88
> Cc1nc(-c2ccc3[nH]c(=O)oc3c2)cs1
  .	-8	-1.1*	-0.5*
> Cc1ccc(C)c(NC(=O)c2nc(S(=O)(=O)Cc3ccc(F)cc3)ncc2Cl)c1
  103	15	107	89
> COc1ccc(Cl)cc1C(=O)Nc1nc(-c2ccc(C)o2)cs1
  .	-19	59	38

# High-throughput results: PubChem BioAssay, ICCB-Longwood Screening Facility, Harvard Medical School
